High-throughput results as filed in PubChem BioAssay.
Mtb betalactam = beta-lactam sensitization of Mtb H37Rv. inhibition, % at 25 µM. AID 434955. M. tuberculosis H37Rv growth with meropenem, percent inhibition; hits of this screen are not shown here. 0.27% of 330,000 active;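 active = about 74% or more and at least 40 points above the plate without the antibiotic, then above 30% in a dose series; inconclusive = first-round hits that could not be retested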;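 note: growth measured after seven days incubation then overnight dye step; 0% = bacteria only wells and 100% = bacteria with antibiotic; twin plates without the antibiotic show which effects depend on it; some results filed as inactive read as strong as hits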
YopH inh = blocks Yersinia enterocolitica YopH tyrosine phosphatase. fluorescence Ex485/Em525. inhibition, %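 (about 10 µM by stock and volumes)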. 0.16% of 140,000 active;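 active = inhibition of 50% or more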;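 note: controls were vehicle for no effect and minimum signal wells for full effect; inactives centre near -20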
Mtb growth = M. tuberculosis H37Rv growth inhibitors, H37Rv strain (AID 1626). M. tuberculosis H37Rv growth inhibition; higher % means a stronger effect. inhibition, % at 10 µM, or IC50 in µM where a hit was titrated. 0.95% of 220,000 active;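 active = confirmed in a dose series; inconclusive = inhibition above 80% but not taken into the dose series; inactive = below 80% or under 30% at every dose of the series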;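 note: bacteria incubated seven days before Alamar blue readout; 0% = bacteria only wells and 100% = bacteria with antibiotic wells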
RecA intein inh = blocks M. tuberculosis RecA intein splicing; cell-free RecA intein splicing, fluorescence; inhibition, %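 (about 9 µM by stock and volumes)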; 0.75% of 290,000 active; AID 2221; in the data active = inhibition above about 30%; inconclusive = no clear call, values can overlap the other calls;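 note: 0% = vehicle wells and 100% = reference inhibitor control wells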
Target sequence (P9WHJ3 whole entry, looked up): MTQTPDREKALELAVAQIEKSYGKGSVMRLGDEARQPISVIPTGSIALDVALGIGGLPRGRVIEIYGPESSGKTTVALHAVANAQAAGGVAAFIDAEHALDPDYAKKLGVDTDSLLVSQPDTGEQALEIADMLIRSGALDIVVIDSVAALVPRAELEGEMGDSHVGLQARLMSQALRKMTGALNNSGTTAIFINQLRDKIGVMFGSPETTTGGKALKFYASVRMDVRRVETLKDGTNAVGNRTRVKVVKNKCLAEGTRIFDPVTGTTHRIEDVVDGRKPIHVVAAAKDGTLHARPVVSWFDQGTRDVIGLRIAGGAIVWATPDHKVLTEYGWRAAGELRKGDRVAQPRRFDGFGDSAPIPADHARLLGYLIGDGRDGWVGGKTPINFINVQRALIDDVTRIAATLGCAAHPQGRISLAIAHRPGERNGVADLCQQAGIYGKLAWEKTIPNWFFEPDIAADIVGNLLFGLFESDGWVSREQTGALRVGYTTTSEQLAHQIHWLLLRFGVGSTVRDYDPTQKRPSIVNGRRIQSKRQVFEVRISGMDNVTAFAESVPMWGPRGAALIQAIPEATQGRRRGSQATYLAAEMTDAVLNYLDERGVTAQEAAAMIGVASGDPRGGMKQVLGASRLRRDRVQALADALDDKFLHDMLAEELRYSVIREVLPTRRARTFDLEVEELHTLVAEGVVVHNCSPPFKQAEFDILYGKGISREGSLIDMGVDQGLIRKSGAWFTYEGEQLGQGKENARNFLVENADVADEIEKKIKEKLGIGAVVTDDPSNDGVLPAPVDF
Arbovirus anti = arbovirus infection inhibition | arbovirus infection cell-based antiviral screen | inhibition, % at 10 µM | 0.37% of 200,000 active | AID 1251;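 active = inhibition from about 30%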;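 note: bluetongue infection of BSR cells; cell survival read as ATP light after 72 h; 0% = infected wells without compound and 100% = uninfected wells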
Arbovirus anti repeat = recorded beside Arbovirus anti, whose call it bears; inhibition, %; measured here: 10K subset replicate screen; many hits read low in the repeat;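 first of two repeat runs on a subset; 0% = infected and 100% = uninfected wells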
The depositor's hits bear a star; ? = inconclusive; / = not tested or not shown.

Preview (two entries):
SMILES	Mtb betalactam	YopH inh	Mtb growth	RecA intein inh	Arbovirus anti	others
Cn1c(CCN2CCN(c3ccccn3)CC2)nc2cc(NC(=O)COc3ccc(Cl)cc3)ccc21	-0.2	/	/	0.8	/
COc1ccc(-n2c(/C=C/c3ccc(O)c(OC)c3)nc3ccccc3c2=O)cc1	86.0	/	/	3.8	/

The list itself, from the start:
SMILES	Mtb betalactam	YopH inh	Mtb growth	RecA intein inh	Arbovirus anti	others
Cn1c(CCN2CCN(c3ccccn3)CC2)nc2cc(NC(=O)COc3ccc(Cl)cc3)ccc21	-0.2	/	/	0.8	/
COc1ccc(-n2c(/C=C/c3ccc(O)c(OC)c3)nc3ccccc3c2=O)cc1	86.0	/	/	3.8	/
CC(=O)Nc1ccc(/C=N/NC(=S)NC(C)C)cc1	-6.6	/	-2.5%	1.4	11.2
CCN(CC)C(=O)c1ccc(O)c(OC)c1	-1.3	-30.4	-4.4%	-2.7	4.3
CCNS(=O)(=O)c1ccc(CCC(=O)N2CCN(c3cccc(Cl)c3)CC2)cc1	3.0	/	/	0.6	/
CCOC(=O)N1CCN(C(=O)CN(C)S(=O)(=O)c2ccc(F)cc2)CC1	-8.1	/	/	-3.7	/
Cc1c(OCC(=O)N[C@@H](Cc2c[nH]c3ccccc23)C(=O)O)ccc2c1oc(=O)c1ccccc12	-1.2	/	/	6.2	/
O=C(NCc1ccccc1)C12CC3CC(CC(C3)C1)C2	5.6	-15.2	-8.2%	3.2	-3.1
COc1ccc(Cl)cc1N(C)C(=O)CCNC(=O)Cn1cnc2ccccc2c1=O	-7.8	-18.6	-8.0%	-1.0	2.8
CCOc1cc(C(=O)N/N=C/C(Br)=C/c2ccccc2)cc(OCC)c1OCC	-4.3	-17.9	?	1.9	-14.6
CC(=O)N(c1ccc2oc(=O)sc2c1)S(=O)(=O)c1cccs1	6.2	-40.0	-4.7%	9.3	22.2
COc1cc(C(=O)Nc2c(C)cc(C)cc2C)c(Br)c(OC)c1OC	96.1	/	0.7%	1.8	10.5
COc1ccc(N2CC(C(=O)OCC(=O)Nc3ccccc3C)CC2=O)cc1 (centres undefined)	8.3	/	/	1.3	/
COc1cc(NC(=O)c2ccc(C)cc2)c(OC)cc1NC(=O)CN1CCCCC1	99.1	8.7	/	0.0	-33.1
COC(=O)C1=C(C)NC(=O)/C1=C\c1cc(C)n(-c2ccccc2C)c1C	23.3	2.3	9.9%	2.4	-3.8
CCCCCCSc1nsc(NC(=O)CCC)n1	8.6	/	-14.6%	-2.1	-26.5
O=C(NCCCN1CCOCC1)C(=O)N/N=C/c1c2ccccc2cc2ccccc12	6.0	-18.2	10.2%	-5.9	-23.3
O=C(Nc1ccc(C(F)(F)F)cc1)c1cccn(Cc2ccc3c(c2)OC(F)(F)O3)c1=O	-3.4	-40.3	2.6%	-2.3	10.0
Fc1ccc(Cn2nnnc2CN2CCc3ccccc3C2)cc1	-4.2	-31.2	1.8%	1.8	0.7
COc1cc(/C=C2\SC(=S)N(Nc3ccccc3)C2=O)cc(OC)c1OC	61.6	5.4	52.7%	6.7	-21.0
CC1(C)CC(=O)C(CC(=O)N2CCC(Cc3ccccc3)CC2)C(=O)C1	-0.3	/	5.7%	-1.4	0.6
COc1cc(S(=O)(=O)NC2CCCC2)ccc1Cl	0.5	-11.5	-10.2%	-0.7	-4.7
Cc1ccnc(NC(=O)CCc2c(C)nc3ncnn3c2C)c1	5.5	-36.4	-5.6%	-1.6	3.2
CCOc1ccc(/C=N/Nc2ccccn2)cc1	4.2	/	0.9%	/	-13.5
Cc1nc(C)c(-c2ccc(SCC(=O)Nc3cccc(Cl)c3)nn2)s1	-7.6	/	/	4.2	/
CCCN1CCc2c(sc(NC(=O)Cc3ccc(F)cc3)c2C(N)=O)C1	?	/	/	-10.0	/
COc1ccc(CN(C(=O)c2oc3ccccc3c2C)C2CCS(=O)(=O)C2)cc1 (centres undefined)	-4.9	-210.3	3.0%	1.3	7.6
Cc1ccc(C)c(OCCC(=O)NCCc2ccc(Cl)cc2)c1	2.3	/	/	1.1	/
Cc1cccc(OCc2nnc(SCC(=O)Nc3sc(C)c(C)c3C#N)n2C)c1	2.3	-12.0	-13.3%	-1.5	2.3
C/C(=N\NC(=O)c1nn(C)cc1Br)c1ccncc1	-5.9	-15.0	0.3%	4.1	-0.9
Cc1ccc(CN2CCN(Cc3cccc4c3OCO4)CC2CCO)cc1 (centres undefined)	-0.9	/	3.5%	-3.6	3.3
CCc1cccc(CC)c1NC(=O)Cn1c(-c2ccc(F)cc2)noc1=O	3.2	/	-0.8%	11.8	-3.0
O=C(c1ccncc1)N1CCN(S(=O)(=O)c2ccc3ccccc3c2)CC1	8.0	/	/	0.0	/
Cc1ccc(S(=O)(=O)N2CCN(C(=O)CSc3ccccn3)CC2)c(C)c1	-4.7	/	/	-40.7	/
CC(=O)c1ccc(Nc2cc(C)nc3ncnn23)cc1	4.5	/	/	-2.3	/
CC(C)COc1cccc(C(=O)Nc2ccc(CN3CCOCC3)cc2)c1	9.2	/	/	0.1	/
COc1cc(C)c(N)cc1C(C)C	-1.8	-194.5	1.3%	2.8	0.9
Cc1cc(C)n(CC(=O)NC2CCCc3c2cnn3-c2ccc(C)c(C)c2)n1 (centres undefined)	2.1	/	/	-0.8	/
O=C(NCc1cccs1)C1CC(O)CN1C(=O)Nc1ccccc1 (centres undefined)	1.4	/	/	0.0	/
C/C(=N\NC(=O)c1nonc1N)c1cccs1	7.0	-16.8	4.0%	-9.9	1.6
CC(C)(C)c1ccc(C(=O)Nc2ccc(CN3CCS(=O)(=O)CC3)cc2)cc1	2.2	/	9.7%	-1.3	/
COc1ccc(N(CC(=O)Nc2ccccc2SC)S(C)(=O)=O)cc1OC	-0.5	-7.2	-14.7%	1.0	11.1
Nc1nonc1C(=O)NCCNc1ccc([N+](=O)[O-])cn1	-1.6	/	1.8%	2.5	-0.3
O=c1cc(/C=C/c2c(F)cccc2Cl)[nH]c2ccccc12	73.5	-26.4	?	-12.8	2.1
COc1ccc(N2C(=O)N(Cc3ccccc3F)c3ccccc3S2(=O)=O)cc1	/	/	6.9%	/	-9.9
COc1ccc([C@H]2C=C3CN(C(=O)OC(C)(C)C)S(=O)(=O)[C@H]3C[C@H]2OC(=O)c2ccc(C(F)(F)F)cc2)cc1	2.3	/	-2.0%	-2.1	/
COc1cccc(N2C(=O)CC(N3CCc4ccccc43)C2=O)c1 (centres undefined)	2.6	-14.1	2.7%	3.1	2.7
CCOC(=O)NC(NC(=S)Nc1ccc(OC)cc1)C(Cl)(Cl)Cl (centres undefined)	0.7	-49.8	-5.0%	/	-8.5
COC(=O)c1ccccc1NC(=O)c1ccccc1SC	64.0	-19.9	8.0%	1.8	8.6
Nc1ccc(C#Cc2ccc3sc4ccccc4c(=O)c3c2)cc1	1.4	/	-7.9%	1.3	/
Further entries follow.
SMILES	Mtb betalactam	YopH inh	Mtb growth	RecA intein inh	Arbovirus anti	others
OC1(c2ccc(F)cc2)CC2CCC(C1)N2Cc1nnnn1C1CCCCC1 (centres undefined)	-6.1	-41.2	/	2.3	11.5
CC(C)N(Cc1ccc(F)cc1)C(=O)c1cc2ccccc2oc1=O	-6.1	/	/	1.6	/
CCCCCCCCCCS(=O)(=O)N/N=C/c1ccccc1OC	-0.5	-20.8	-1.6%	5.9	-25.9
CCNC(=O)/C(=C\C=C\c1ccccc1)NC(=O)c1ccc(Br)o1	0.0	-20.2	1.2%	-2.3	3.5
CCC(Sc1nc2ncccc2[nH]1)C(=O)NC1CCCC1 (centres undefined)	-6.7	/	/	-1.0	/
COc1cccc(CN(C)C(=S)Nc2ccc(C)c(C)c2)c1	12.9	/	-10.5%	0.3	9.4
O=C1NC(c2ccccc2)=NC1(NS(=O)(=O)c1ccc(Cl)cc1)C(F)(F)F (centres undefined)	9.3	-59.3	7.1%	-5.2	0.1
CCc1ccc(NC(=O)C(C)OC(=O)/C=C/c2cccc([N+](=O)[O-])c2)cc1 (centres undefined)	0.5	-14.1	7.0%	-2.9	-0.8
COc1ccc(CN2CCNC(=O)C2CC(=O)N2CCc3ccccc3C2)c(OC)c1 (centres undefined)	-14.0	/	-1.7%	-1.4	2.7
COc1ccc(S(=O)(=O)N2CCOCC2)cc1NC(=O)CSc1ccccc1	-17.5	/	/	1.2	/

Random excerpt: 5 records from the list
SMILES	Mtb betalactam	YopH inh	Mtb growth	RecA intein inh	Arbovirus anti	others
CC(C)N(Cc1ccc(F)cc1)C(=O)c1cc2ccccc2oc1=O	-6.1	/	/	1.6	/
CCCCCCCCCCS(=O)(=O)N/N=C/c1ccccc1OC	-0.5	-20.8	-1.6%	5.9	-25.9
O=C1NC(c2ccccc2)=NC1(NS(=O)(=O)c1ccc(Cl)cc1)C(F)(F)F (centres undefined)	9.3	-59.3	7.1%	-5.2	0.1
COc1ccc(CN2CCNC(=O)C2CC(=O)N2CCc3ccccc3C2)c(OC)c1 (centres undefined)	-14.0	/	-1.7%	-1.4	2.7
CCC(Sc1nc2ncccc2[nH]1)C(=O)NC1CCCC1 (centres undefined)	-6.7	/	/	-1.0	/

Further results.
SMILES	Mtb betalactam	YopH inh	Mtb growth	RecA intein inh	Arbovirus anti	others
O=[N+]([O-])c1ccc(N2CCCC2)c2ccncc12	-3.2	/	-5.5%	3.1	13.0
c1cc2c3c(cccc3c1)C(N1CCOCC1)=N2	-6.8	/	-11.2%	-170.4	/
COc1ccc(NC(=O)C2CCCN2S(=O)(=O)c2ccc(F)cc2)cc1 (centres undefined)	-1.7	-36.8	-9.6%	1.7	0.0	Arbovirus anti repeat=3.8
Cc1cc(NC(=O)CCC(=O)N(Cc2ccco2)C(C(=O)NC2CCCCC2)c2cccs2)no1 (centres undefined)	-1.3	/	-8.1%	-0.9	-2.1
CC(O/N=C\c1ccccc1O)C(=O)Nc1ccccc1C(=O)N1CCOCC1 (centres undefined)	4.8	-8.0	-2.3%	0.1	-6.2
CC1CN(C(=O)c2ccc(COc3ccccc3Br)o2)CC(C)O1 (centres undefined)	8.9	/	4.0%	0.9	-2.0
Fc1cccc(Nc2nc3ccccc3n3cnnc23)c1	5.5	/	/	-0.7	/
S=C(NCc1ccc(Cl)cc1)NCc1ccco1	7.5	/	/	4.5	/
CCOC(=O)C[C@H]1c2ccccc2S(=O)(=O)N1c1ccccc1	-0.5	/	-14.9%	1.9	/
COC(=O)c1cccc(C23CC4(C2)[C@H](CN(C)[C@@H]4c2ccccc2)C3c2ccccc2)c1 (some centres undefined)	-3.6	/	17.4%	13.2	/

Arranged by SMILES length (descending): part of the list above.
SMILES	Mtb betalactam	YopH inh	Mtb growth	RecA intein inh	Arbovirus anti	others
Cc1cc(NC(=O)CCC(=O)N(Cc2ccco2)C(C(=O)NC2CCCCC2)c2cccs2)no1 (centres undefined)	-1.3	/	-8.1%	-0.9	-2.1
CC(O/N=C\c1ccccc1O)C(=O)Nc1ccccc1C(=O)N1CCOCC1 (centres undefined)	4.8	-8.0	-2.3%	0.1	-6.2
COc1ccc(NC(=O)C2CCCN2S(=O)(=O)c2ccc(F)cc2)cc1 (centres undefined)	-1.7	-36.8	-9.6%	1.7	0.0	Arbovirus anti repeat=3.8
CCOC(=O)C[C@H]1c2ccccc2S(=O)(=O)N1c1ccccc1	-0.5	/	-14.9%	1.9	/
CC1CN(C(=O)c2ccc(COc3ccccc3Br)o2)CC(C)O1 (centres undefined)	8.9	/	4.0%	0.9	-2.0
O=[N+]([O-])c1ccc(N2CCCC2)c2ccncc12	-3.2	/	-5.5%	3.1	13.0
Fc1cccc(Nc2nc3ccccc3n3cnnc23)c1	5.5	/	/	-0.7	/

Additional entries.
SMILES	Mtb betalactam	YopH inh	Mtb growth	RecA intein inh	Arbovirus anti	others
O=C(CSc1ccsc1[N+](=O)[O-])NCc1ccco1	3.7	/	3.8%	0.9	4.4
CCN1c2ccccc2N(C)C1(C)c1ccccc1 (centres undefined)	100.3	92.2*	25.2%	/	-1.4
CCOC(=O)N1CCC(NC(=O)Cn2cc3c(n2)CCC(C)C3)CC1 (centres undefined)	-9.9	-52.4	-4.8%	-0.7	7.3
O=C1NN=C(c2ccc(Cl)cc2)CC1c1cccc(Cl)c1 (centres undefined)	10.5	-22.6	8.6%	3.1	7.0
COc1ccc(CC(=O)NC(=S)NNC(=O)COc2c(C)cccc2C)cc1	13.5	-9.2	50.3%	5.5	-5.0

Not all compounds are listed (hit frequency here may not be typical).
